Bioassay records from PubChem.
MARV entry inh – qHTS for inhibitors of binding or entry into cells for Marburg Virus. Potency, µM (series often up to 37.8 µM), inactives show top-dose activity change, negative = inhibition, most hits filed as inhibitors. Marburg virus pseudotyped entry inhibition, cell reporter; control for the full effect not named in the record; about a third of the inactives were read at about 46 µM. 300,000 compounds, 1.8% hits; active = well fitted inhibition curve with a large enough effect; inconclusive = small, poorly fitted or top-dose-only effect, or effect the other way; inactive = flat fitted curve, though single readings scatter; tested in HEK293 cells; about a fifth of its hits are not listed in these tables; note: % is set by controls: 0 for no effect and ±100 for the full control effect; luciferase read-out
SARS PLP yeast – qHTS of Yeast-based Assay for SARS-CoV PLP; S. cerevisiae expressing SARS-CoV PLpro, growth rescue; control for the full effect not named in the record; Potency, µM (series often up to 32.9 µM), for inactives: top-dose activity, positive = growth rescue; 330,000 compounds, 0.19% hits; AID 485353, 2010; active means well fitted rising curve with a large enough effect; inconclusive means small, poorly fitted or top-dose-only effect; inactive means no such curve, though single readings can be large or run the other way; note: 0% is about no effect; nearly all actives have a fitted effect of over 55% in size; growth read by luminescence after 48 h
LASV entry inh – qHTS for Inhibitors of binding or entry into cells for Lassa Virus. AID 540256, 2011. Lassa virus pseudotype entry inhibition, cell reporter; control for the full effect not named in the record. 300,000 compounds, 1.2% hits. Potency, µM (titrated, usually from 37.9 µM), without a hit: at the highest dose activity change, negative = inhibition, actives largely listed as inhibitors; active means well fitted inhibition curve with a large enough effect; inconclusive means small, poorly fitted or top-dose-only effect, or effect the other way; inactive means flat fitted curve, though single readings scatter; tested in HEK293 cells; note: % is set by controls: 0 for no effect and ±100 for the full control effect; nearly all actives have a fitted effect of over 50% in size; luciferase read-out
RE007 growth inh – qHTS Assay for Inhibitors of the HIV-1 protein Vpr; S. pombe RE007 Vpr strain, BacTiter-Glo ATP luminescence, 24 h; control for the full effect not named in the record; Potency, µM (highest dose often 92.2 µM), for the others: at the highest dose activity change, negative = less growth; 360,000 compounds, 0.21% hits; active = well fitted falling curve with a large enough effect; inconclusive = small, poorly fitted or top-dose-only effect; inactive = no such curve, though single readings can be large or run the other way;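 note: % is set by controls: 0 for no effect and ±100 for the full control effect; nearly all actives have a fitted effect of over 50% in size; the assay follows cell death caused by Vpr and the record does not say whether a fall means rescue or toxicity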
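Fission yeast strain RE007, carrying one chromosomally integrated HIV-1 vpr copy, was seeded at OD 0.01 in PMG+AL medium with 23 nL pinned compound. After 24 h at 30 °C and 99% humidity, viability was read by BacTiter-Glo luminescence.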
Cruzain inh noDet – qHTS Assay for Promiscuous and Specific Inhibitors of Cruzain (without detergent). purified cruzain, Z-FR-AMC fluorescence, no detergent. Cruzipain (Trypanosoma cruzi), P25779. 200,000 compounds, 2.3% hits. Potency, µM, without a hit: max response, negative = inhibition, usual class: inhibitors;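 note: plate controls were enzyme without inhibitor for no effect and buffer without enzyme for full effect; nearly all actives have a fitted effect of over 40% in size; top concentration of the series not given in the record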
Target sequence (P25779 123-467 limits assumed): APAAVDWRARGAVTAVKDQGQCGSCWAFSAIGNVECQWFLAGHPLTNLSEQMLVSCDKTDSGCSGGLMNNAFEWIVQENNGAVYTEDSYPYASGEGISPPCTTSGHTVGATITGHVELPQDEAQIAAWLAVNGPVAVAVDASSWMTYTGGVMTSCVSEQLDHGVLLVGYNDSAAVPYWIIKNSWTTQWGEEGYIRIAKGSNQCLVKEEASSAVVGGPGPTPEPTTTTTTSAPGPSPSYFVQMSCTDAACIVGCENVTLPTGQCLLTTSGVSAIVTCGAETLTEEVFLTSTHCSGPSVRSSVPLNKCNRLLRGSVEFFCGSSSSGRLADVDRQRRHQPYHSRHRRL
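Detergent-free condition (0.00005% Triton X-100) in acetate buffer pH 5.5 with DTT. 1.5 nM enzyme and compound were pre-mixed 15 min, then 2 uM Z-FR-AMC substrate added; reaction progress from fluorescence change between first and third reads (60 s).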
StopGo reporter – High Throughput Screening for Foot and Mouth Disease Virus Antivirals | human cells with a luciferase reporter of 2A StopGo recoding; control for the full effect not named in the record | Potency, µM (titrated, usually from 57.9 µM), without a hit: at the top dose signal change, negative = less light | 410,000 compounds, 1.2% hits; active = well fitted falling curve with a large enough effect; inconclusive = small, poorly fitted or top-dose-only effect; inactive = no such curve, though single readings can be large or run the other way; tested in HEK293T cells; note: % is set by controls: 0 for no effect and ±100 for the full control effect; nearly all actives have a fitted effect of over 45% in size; luciferase light after 4 h
Cruzain inh Det – qHTS Assay for Promiscuous and Specific Inhibitors of Cruzain (with detergent); Cruzipain (Trypanosoma cruzi), P25779; purified cruzain, Z-FR-AMC fluorescence, 0.01% Triton; Potency, µM, without a hit: max response, negative = inhibition, actives largely listed as inhibitors; 200,000 compounds, 0.43% hits;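 note: plate controls were neutral wells for no effect and buffer without enzyme for full effect; nearly all actives have a fitted effect of over 40% in size; top concentration of the series not given in the record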
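Enzyme 1.5 nM, Z-FR-AMC 2 uM, NaOAc 100 mM pH 5.5, DTT 5 mM, Triton X-100 0.01%; 15 min RT compound preincubation; kinetic ex360/em450, 60 s delta.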
NS1 function inh – qHTS Assay for Inhibitors of Influenza NS1 Protein Function. S. cerevisiae slowed by influenza A NS1, growth recovery by OD600. Potency, µM (titrated, usually from 46.1 µM), for inactives: at the top dose activity, positive = more growth. 270,000 compounds, 0.4% hits. AID 2326, 2010; active means well fitted rising curve with a large enough effect; inconclusive means small, poorly fitted or top-dose-only effect; inactive means no such curve, though single readings can be large or run the other way; note: nearly all actives have a fitted effect of over 50% in size
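In this qHTS, NS1 from influenza A is expressed in budding yeast, where it slows growth. Cells are switched from glucose to 2% galactose medium (pH 6.0, -URA), treated with compound, and growth recovery is read at OD600.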
An asterisk follows results filed as active; ? = inconclusive; . = not tested or not shown; & = joins results of further samples; [ ] = remark or other dose. Unless noted, calls come from the whole dose curve; as a rule, active = well fitted curve in the direction sought with a large enough effect; inconclusive = small, poorly fitted or top-dose-only effect, or another doubt; inactive = no such curve, though single readings can be large; an effect the other way counts as inactive or inconclusive. Potency is the fitted concentration of half-maximal effect. Not a hit list. Share with any hit: about 4.8%.

compound	SARS PLP yeast	NS1 function inh	Cruzain inh noDet	StopGo reporter	MARV entry inh	LASV entry inh	RE007 growth inh	Cruzain inh Det
Cc1cc(NCc2ccco2)n2ncnc2n1	2%	13%	6%	-22%	3%	?	10%	0.7%
CC(=O)N1CCN(c2nc(N)c(C#N)c(CC#N)c2C#N)CC1	0%	4%	.	-12%	.	.	6%	.
Cc1ccc(C2C(C#N)=C(N)OC3=C2C(=O)CC(C)(C)C3)s1 (stereo not given)	-2%	-3%	.	0%	.	.	-1%	.
CC(C)(C)c1ccc(S(=O)(=O)NNC(=O)c2cc3ccccc3[nH]2)cc1	-10%	?	.	3%	5%	16%	0%	.
CCCC1=C(C(=O)OCC)C(/C=C/c2ccccc2)n2ncnc2N1 (stereo not given)	4%	-2%	12%	-27%	9.2µM*	-19%	-1%	0.0%
COc1ccccc1CN1CCNC(=O)C1CC(=O)O (stereo not given)	-1%	0%	.	27%	-1%	10%	11%	.
CC(C)OC(=O)[C@H]1O[C@H](CCCCOCc2ccccc2)[C@@H](C)[C@H]2O[C@H]21	.	.	-1%	.	22%[14.2 µM]	?	.	2.6%
CCc1cc(C(=O)N2CCOCC2)c(NC2=NS(=O)(=O)c3ccccc32)s1	1%	15%	-3%	0%	11%	19%	16%	-2.7%
CCOC(=O)C1=C(CSc2nc(C)cc(C)c2C#N)OC(N)=C(C#N)C1c1ccccc1 (stereo not given)	-8%	15%	?	-2%	-1%[46.1 µM]	4%	14%	-6.8%
N#Cc1c(N(CCO)CCO)nc(N)c2c(N)nc3c(c12)CC(=O)N3CC1CCCO1 (stereo not given)	-3%	1%	.	-7%	.	.	-1%	.
COc1ccc(N2CCN(C(=O)c3ccc(NS(=O)(=O)c4ccccc4)cc3)CC2)cc1	-11%	13µM*	3%	-9%	?	4%	3%	6.0%
O=C(CCn1ccc([N+](=O)[O-])n1)Nc1nccs1	1%	1%	.	-2%	0%[46.1 µM]	10%	-14%	.
COc1cc(/C=C2/C(=N)N3N=C(CC(=O)N4CCOCC4)SC3=NC2=O)ccc1OCc1ccccc1	?	12%	.	-4%	.	.	5%	.
CCCN1C(=O)/C(=C/c2ccc(C)o2)SC1=Nc1ccc(OCC)cc1	-2%	4%	-4%	-13%	12%	-13%	-22%	-4.6%
CCCNC(=O)C(CC)NS(=O)(=O)c1ccc(OC)cc1 (stereo not given)	6%	1%	-7%	-16%	2%	-2%	7%	1.1%
CCc1cccc(NC(=O)CCn2nc(C)cc2C)c1	.	.	10%	-19%	.	24%[46.1 µM]	.	-1.4%
Cc1cc(C)n(C(C)CC(=O)NCc2ccccc2C)n1 (stereo not given)	.	.	11%	-11%	.	8%[46.1 µM]	.	-0.8%
O=C(Cc1ccccc1)NC(=S)Nc1ccc(N2CCCCC2)cc1	8%	21%	5%	3%	?	?	-5%	-16%
CC(=O)Nc1ccc(S(=O)(=O)N2CCSC2c2ccc(Cl)cc2)cc1 (stereo not given)	-16%	-44%	?	?	?	?	23%	-5.6%
Cc1cc(=O)[nH]c(S/C=C/c2ccccc2)n1	-12%	-38%	-16%	37%[activator]	3%	?	?	-2.6%
O=C1NN(c2ccccc2)C(=O)/C1=C\c1cccn1-c1ccc(Cl)c([N+](=O)[O-])c1	-1%	2%	-8%	?	11µM*	?	-5%	-6.0%
Cc1cc(=O)nc2c3ccccc3n(CC(=O)NC3CCCCC3)n12	-5%	-12%	.	-11%	.	.	-11%	.
CCN(CC)CCn1c2c(c(SCC(=O)Nc3cc(C)cc(C)c3)nc1=O)CCC2	1%	.	.	-8%	?	10%	2%	.
O=C(CCCC(=O)OCC(=O)c1cccs1)Nc1ccc(F)cc1	0%	-7%	.	13%	2%	23%	-1%	.
CCOC(=O)c1ccc(NC(=O)c2ccc(NC(=O)c3ccccc3)cc2)cc1	3%	-3%	-16%	.	-14%	-5%	-2%	4.8%
COC(=O)c1ccccc1NC(=O)c1sc2nc(C)cc(C)c2c1NC(=O)c1ccccc1OC	.	.	-2%	-27%	.	8%[46.1 µM]	.	0.0%
Cc1cc(NC(=O)c2cccs2)ncc1NC(=O)C(C)(C)C	-7%	-10%	.	-28%	?	?	-4%	.
O=C(O)CCC(=O)N1CCC(n2nnc3cc(C(F)(F)F)ccc32)CC1	-5%	-1%	.	14%	6%[46.1 µM]	0%	8%	.
CC(Cc1cnccn1)NC(=O)c1cc(COc2ccc(F)cc2F)on1 (stereo not given)	1%	-1%	.	-5%	.	.	3%	.
CCc1c(C)nc(SCC(=O)N2C(C)CCCC2C)[nH]c1=O (stereo not given)	-1%	.	.	1%	-4%[46.1 µM]	?	-13%	.
CCOc1ccc(N(CC(=O)Nc2ccccc2Cl)S(C)(=O)=O)cc1	5%	-6%	.	54%[activator]	.	.	-2%	.
CC(C)CCN1CC(C(=O)NCc2ccc(F)cc2)CC1=O (stereo not given)	7%	2%	-1%	.	5%	?	-5%	5.3%
O=C(C1=C[C@@H](C2CC2)C[C@@H](OCc2ccc(CO)cc2)O1)N1CCN(Cc2ccccc2)CC1	0%	-6%	.	-30%	.	.	1%	.
O=C(CCn1c(=S)[nH]c2cc3c(cc2c1=O)OCO3)NCc1cccc(Cl)c1	1%	14%	.	-12%	25%[46.1 µM]	6%[46.1 µM]	-10%	.
Cc1ccc(S(=O)(=O)N[C@@H](Cc2ccccc2)C(=O)N2CCC[C@@H]2C(=O)O)cc1	1%	6%	.	1%	11%	20%	-10%	.
CCOc1ccccc1C1C(C(=O)OC)=C(N)OC2=C1C(=O)CCC2 (stereo not given)	5%	-11%	1%	.	?	24%	-9%	3.0%
O=C(c1cccc(Cl)c1)N1c2nc(-c3ccco3)nn2C2(CCCCC2)[C@@H]2CCCC[C@@H]21	.	.	-3%	-7%	-12%[46.1 µM]	18%[46.1 µM]	.	-1.4%
CCN(CC)CCn1c(=N)n(CC(O)c2ccco2)c2ccccc21 (stereo not given)	17%	-4%	-3%	1%	?	?	12%	-1.0%
Cc1ccc(CN(c2ccc(C(=O)NCc3ccccn3)cc2)S(C)(=O)=O)cc1	5%	2%	7%	1%	-4%	-3%	-7%	4.7%
COc1ccccc1N1CCN(S(=O)(=O)c2cc3[nH]c(=O)c(=O)[nH]c3cc2C)CC1	0%	-12%	.	-6%&2%	-2%&-2%[46.1 µM]	17%&7%[46.1 µM]	15%	.
CC(=O)COc1ccc2c(-c3ccccc3)cc(=O)oc2c1	?	-4%	3%	29%	?	16%	29%	-5.5%
O=C(CP(=O)(c1ccccc1)c1ccccc1)N/N=C/c1cc(Br)cc(Br)c1O	2.5µM*	-1%	?	-3%	?	2.8µM*	14%	-8.3%
COc1ccc(C2CC(c3ccc(F)cc3)=NN2c2ccccc2)cc1OC (stereo not given)	-7%	13%	.	31%[activator]	3%	?	1%	.
CC(C)C12CN3CC(C(C)C)(CN(C1)C3(C)C)C2=O	0%	3%	.	-12%	?	-1%	-18%	.
Cc1ccc(NC(=O)C(C)N2C(=O)c3ccccc3C2=O)cc1C (stereo not given)	-6%	-15%	.	-26%	.	.	1%	.
O=C(C[n+]1cccc(CNC(=O)c2ccc(OC(F)F)cc2)c1)Nc1ccccc1Cl	-12%	2%	3%	7%	?	0%	.	-2.0%
CCC(CC)NC(=O)COC(=O)c1ccc(OCc2ccc(C(C)=O)cc2OC)c(OC)c1	4%	?	?	-20%	3%	-3%	20%	-2.9%
Cc1cccc(C)c1NC(=O)NC1CC2CCC(C1)N2Cc1cccs1 (stereo not given)	-7%	11%	-4%	.	?	-9%	-2%	-2.6%
CCOc1ccc(CC(=O)N2CCN=C2SC)cc1	1%	5%	.	11%	20%[46.1 µM]	-2%	7%	.
CC1CCN(Cc2nnnn2CCCC(=O)N(C)C2CCOC2)CC1 (stereo not given)	4%	-7%	.	3%	.	.	-5%	.
C/C(=N\NC(=O)CCCCCNC(=O)c1ccccc1)c1ccccc1O	17%	-1%	-4%	-2%	4%	15%	-4%	-4.8%
Nc1ccc(C(=O)O)cc1[N+](=O)[O-]	2%	.	.	-21%	6%[46.1 µM]	-26%[46.1 µM]	9%	.
Oc1cc2ccccc2cc1-c1nnc2n1-c1ccccc1SC2	-2%	10%	-6%	6%	-6%	-8%	-5%	4.0%
Cc1ccc(N2C(=O)CS(=O)(=O)C23C(=O)N(Cc2ccc(Cl)cc2)c2ccccc23)cc1C (stereo not given)	.	.	13µM*	-1%	.	-2%[46.1 µM]	.	-2.7%
CC(=O)c1cc(CC=C(C)C)c(O)cc1O	-4%	-75%	-3%	-8%	?	?	-6%	-7.2%
C/C(=N\Nc1ccc(S(=O)(=O)N2CCCCC2)cn1)c1ccc(O)cc1	-11%	.	.	?	-12%	-1%	-16%	.
Cc1cc(-c2cccc([N+](=O)[O-])c2)nc2ccc3ccccc3c12	6%	1%	?	53%[activator]	?	49%[14.3 µM]	7%	0.7%
